Screening data deposited in PubChem by several laboratories.
RGS16-Gao: modulators of RGS16 binding to Galphao, primary screen, biochemical, human proteins, multiplexed bead flow cytometry; bead-based flow cytometry RGS16-Galphao binding, fluorescence; actives lie on both sides; binding response (% of control), % at 10 µM; actives 0.38% (n = 220,000);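 active = below 25% or above 175%, edge rows of some plates excepted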;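 also: Galphao activated by GDP with aluminum fluoride before binding; 100% = wells without compound and 0% = beads without RGS; some results beyond the cut were filed as inactive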
Target sequence (O15492 whole entry, looked up): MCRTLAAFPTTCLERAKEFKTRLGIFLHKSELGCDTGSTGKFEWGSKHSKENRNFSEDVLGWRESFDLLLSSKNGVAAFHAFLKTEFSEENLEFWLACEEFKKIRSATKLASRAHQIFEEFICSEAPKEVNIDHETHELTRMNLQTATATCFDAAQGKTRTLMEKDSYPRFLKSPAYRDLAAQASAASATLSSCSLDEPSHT
Target sequence (P09471 whole entry, looked up): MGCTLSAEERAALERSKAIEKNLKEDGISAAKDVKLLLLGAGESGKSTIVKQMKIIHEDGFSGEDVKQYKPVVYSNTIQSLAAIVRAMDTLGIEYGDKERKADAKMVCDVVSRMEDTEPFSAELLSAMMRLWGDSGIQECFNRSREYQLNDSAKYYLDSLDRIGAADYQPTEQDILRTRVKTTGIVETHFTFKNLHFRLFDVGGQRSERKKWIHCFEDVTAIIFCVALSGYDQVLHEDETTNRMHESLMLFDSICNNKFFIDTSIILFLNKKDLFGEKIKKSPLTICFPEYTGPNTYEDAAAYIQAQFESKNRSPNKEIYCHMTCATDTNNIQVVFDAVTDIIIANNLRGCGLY
PKD1 inh: inhibitors of human PKD1 kinase, biochemical, fluorescence polarization. Serine/threonine-protein kinase D1 (Homo sapiens), Q15139. PKD1 kinase fluorescence polarization assay. inhibition, %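 (about 10 µM by stock and volumes)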. actives 0.056% (n = 200,000). AID 797, 2007;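 active = inhibition of 50% or more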;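 also: controls were vehicle for no effect and a reference inhibitor for full effect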
GALR2 ag: GALR2 receptor agonists, primary screen, cell-based. Galanin receptor type 2 (Homo sapiens), O43603. GALR2-expressing cells, agonist activation read-out. activation, %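 (tested at 5 µM)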. actives 0.48% (n = 140,000). AID 803, 2007;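 active = above mean plus 3 SD of all compounds, about 5% in these data, not always enough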;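 also: 0% = vehicle buffer wells and 100% = reference agonist at full effect; tested in CHO reporter cells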
Target sequence (O43603 whole entry, looked up): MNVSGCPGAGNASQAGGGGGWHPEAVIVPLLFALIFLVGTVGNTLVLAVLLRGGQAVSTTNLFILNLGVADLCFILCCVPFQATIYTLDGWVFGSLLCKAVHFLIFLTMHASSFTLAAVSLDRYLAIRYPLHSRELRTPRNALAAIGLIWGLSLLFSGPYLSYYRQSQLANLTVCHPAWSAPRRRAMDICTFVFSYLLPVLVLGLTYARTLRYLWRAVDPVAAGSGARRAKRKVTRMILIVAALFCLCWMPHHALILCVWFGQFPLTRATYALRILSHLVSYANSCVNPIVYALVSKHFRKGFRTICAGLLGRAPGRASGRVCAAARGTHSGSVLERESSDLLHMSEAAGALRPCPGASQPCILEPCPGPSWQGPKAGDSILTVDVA
Insulin prom inh: inhibitors of insulin promoter-driven GFP, primary screen, imaging, TRM-6 cells (human fetal islet line), eGFP reporter, cell count; reporter expression induced with tamoxifen; inhibition, % at 2 µM; actives 0.9% (n = 130,000); AID 1273, 2008;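 active = inhibition above the mean plus 3 SD, with well images judged a real hit on visual review, cut at about 60% in these data, passing the limit was not always enough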
HSV augment: enhancers of HSV replication in host cells, fold increase, host cell viability; HSV replication augmentation in cells; actives 0.005% (n = 220,000); maximum fold increase;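 active = peak rise of 1.5-fold or more in the series; tested in PC3 cells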;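 also: first round at 10 µM; read as green reporter fluorescence; hits show the peak of a series up to 25 µM; 1 = signal of infected wells without compound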
Insulin prom inh cell count: also measured in Insulin prom inh; calls as there; normalized cell count, %; measured here: cell count, toxicity; reference of the scale not given here;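 cells exposed to compound for 48 h; stained nuclei by imaging scaled within each plate; lower means fewer cells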
HSV augment primary fold: also measured in HSV augment; calls as there; fold increase; compound at 10 µM; measured here: primary screen fold increase 10 uM; tested in PC3 cells;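 GFP signal in the first replicate; 1 = infected wells without compound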
Numbers without * were called inactive; & = joins results of further samples.

Screening O=C(NC(Cc1ccccc1)C(=O)O)c1ccc(S(=O)(=O)N2CCOCC2)cc1 (centres undefined) returned RGS16-Gao 109.0, PKD1 inh -2.5, GALR2 ag -1.9, Insulin prom inh -37.5, HSV augment inactive, Insulin prom inh cell count 99.7 and HSV augment primary fold 0.82.
Cc1nc(NC(=O)c2ccc(Br)s2)sc1C(=O)N(C)C was read as RGS16-Gao 98.8, PKD1 inh -4.3, GALR2 ag -0.9, Insulin prom inh 50.0, HSV augment inactive, Insulin prom inh cell count 114.0 and HSV augment primary fold 1.
c1ccc(-c2[nH]ncc2CN2CCN(Cc3ccc4c(c3)OCO4)CC2)cc1 was read as RGS16-Gao 103.0, HSV augment inactive and HSV augment primary fold 0.97.
For COc1cc(C(=O)NNC(=O)c2ccc(S(=O)(=O)N3CCCCC3)cc2)cc(OC)c1OC the results were RGS16-Gao 105.6, PKD1 inh 1.8, GALR2 ag -3.4, Insulin prom inh -28.9, HSV augment inactive, Insulin prom inh cell count 42.1 and HSV augment primary fold 1.03.
For CCOC(=O)C1=C(O)C(=O)N(CCCn2ccnc2)C1c1ccc(OC)cc1 (centres undefined) the results were RGS16-Gao 100.0, PKD1 inh -4.6, Insulin prom inh 33.3, HSV augment inactive, Insulin prom inh cell count 122.1 and HSV augment primary fold 1.03.
For CCOC(=O)N1CCN(Cc2cn[nH]c2-c2ccc(-c3ccccc3)cc2)CC1 the results were RGS16-Gao 102.4, PKD1 inh -3.4, HSV augment inactive and HSV augment primary fold 0.8.
Screening Nc1nc(-c2ccccc2)nn1S(=O)(=O)c1ccccc1 returned RGS16-Gao 90.2, PKD1 inh -8.9, HSV augment inactive and HSV augment primary fold 1.
C=CCN=c1scc(-c2ccc(F)cc2)n1/N=C/c1ccccn1 was read as RGS16-Gao 102.3, PKD1 inh 10.1, GALR2 ag -1.0, HSV augment inactive and HSV augment primary fold 0.89.
Screening Cc1cc(C(=O)c2ccc(Cl)cc2)c(NC(=O)CCl)s1 returned RGS16-Gao 101.5, PKD1 inh -0.8, GALR2 ag -0.7, Insulin prom inh 26.7, HSV augment inactive, Insulin prom inh cell count 120.2 and HSV augment primary fold 0.95.
`Cc1cccc(CSC2=NN3CCCC(=O)N=C3S2)c1` gave RGS16-Gao 96.1, PKD1 inh -10.8, GALR2 ag 0.0, Insulin prom inh -20.0, HSV augment inactive, Insulin prom inh cell count 97.0 and HSV augment primary fold 0.97.
For COc1ccccc1NC(=O)[C@H](COCc1ccccc1)NC(=O)OC(C)(C)C the results were RGS16-Gao 100.0, PKD1 inh 4.9, GALR2 ag -1.1, HSV augment inactive and HSV augment primary fold 0.94.
COc1ccc(OC)c(NC(=O)CSc2nnc(N)s2)c1 was read as RGS16-Gao 91.3, PKD1 inh 4.8, GALR2 ag -2.8, Insulin prom inh -300.0, HSV augment inactive, Insulin prom inh cell count 83.5 and HSV augment primary fold 0.94.
CN(C)CCCCOc1ccccc1F was read as RGS16-Gao 102.5, PKD1 inh -0.2, HSV augment inactive and HSV augment primary fold 0.91.
For Cc1ccc(NC(=O)COc2ccccc2C=O)cc1Cl the results were RGS16-Gao 102.4, PKD1 inh 3.4, HSV augment inactive and HSV augment primary fold 0.92.
For CCCc1nc(SCC(N)=O)[nH]c(=O)c1CC the results were RGS16-Gao 102.3, PKD1 inh 2.9, GALR2 ag -0.9, Insulin prom inh -23.1, HSV augment inactive, Insulin prom inh cell count 139.0 and HSV augment primary fold 1.34.
For CN1C(C(=O)NCc2ccc(OC(F)(F)F)cc2)CC2Cn3c(nc4cc5ccccc5cc43)C21 (centres undefined) the results were RGS16-Gao 87.8, HSV augment inactive and HSV augment primary fold 0.58.
Screening Cc1ccc(Nc2nnc(SCC(=O)NCCN3C(=O)CSC3=O)s2)cc1 returned RGS16-Gao 115.0, PKD1 inh 3.2, GALR2 ag -1.6, HSV augment inactive and HSV augment primary fold 0.96.
For CN(CC(O)CN1CCOCC1)S(=O)(=O)O (centres undefined) the results were RGS16-Gao 103.6&96.4, PKD1 inh -0.8, HSV augment inactive and HSV augment primary fold 1.22&1.15.
CCc1sc(C(=O)Nc2ccc(F)cc2C)cc1C was read as RGS16-Gao 49.0, PKD1 inh -4.1, GALR2 ag 0.0, Insulin prom inh 2.9, HSV augment inactive, Insulin prom inh cell count 73.2 and HSV augment primary fold 1.08.
Screening COc1ccc(NC(=O)CN(c2ccc([N+](=O)[O-])cc2)S(=O)(=O)c2ccccc2)c(OC)c1 returned RGS16-Gao 106.5, PKD1 inh -1.1, GALR2 ag -1.2, Insulin prom inh 21.6, HSV augment inactive, Insulin prom inh cell count 89.7 and HSV augment primary fold 0.88.
For CCOC(=O)c1c(NC(=O)CSc2n[nH]c(CNc3ccccc3)n2)sc(C)c1C the results were RGS16-Gao 95.4, PKD1 inh -0.1, GALR2 ag -0.1, Insulin prom inh 41.2, HSV augment inactive, Insulin prom inh cell count 100.0 and HSV augment primary fold 0.96.
For COc1cc(-c2noc(-c3ccccc3C(=O)NCc3ccco3)n2)cc(OC)c1OC the results were RGS16-Gao 98.5, PKD1 inh -7.6, GALR2 ag -3.2, Insulin prom inh -17.2, HSV augment inactive, Insulin prom inh cell count 170.3 and HSV augment primary fold 0.92.
`Cc1ccc(N2C(=O)c3ccc(C(=O)O)cc3C2=O)c(C)c1` gave RGS16-Gao 151.3, PKD1 inh 0.2, GALR2 ag -0.3, Insulin prom inh -6.7, HSV augment inactive, Insulin prom inh cell count 80.8 and HSV augment primary fold 1.09.
COc1ccc(-c2onc3ccc(Cl)cc23)cc1OC was read as PKD1 inh -0.5, GALR2 ag -1.3, Insulin prom inh -4.8 and Insulin prom inh cell count 89.9.
`COC(C/C=C/C(=O)COCc1ccccc1)OC` gave RGS16-Gao 96.2, HSV augment inactive and HSV augment primary fold 0.91.
Screening O=C(O)Cc1sc(Nc2ccccc2)nc1-c1ccc(Cl)cc1 returned RGS16-Gao 85.8, PKD1 inh 2.8, Insulin prom inh -16.7, HSV augment inactive, Insulin prom inh cell count 53.9 and HSV augment primary fold 1.02.
CC1CCCN(c2ccc(C(=O)Nc3nnc(C4CC4)s3)cc2[N+](=O)[O-])C1 (centres undefined) was read as RGS16-Gao 108.0, PKD1 inh 8.9, GALR2 ag 0.3, Insulin prom inh 15.4, HSV augment inactive, Insulin prom inh cell count 155.9 and HSV augment primary fold 0.9.
O=C(Nc1cnccn1)Nc1ccccc1Cl was read as RGS16-Gao 96.4, PKD1 inh -2.7, Insulin prom inh 40.0, HSV augment inactive, Insulin prom inh cell count 124.4 and HSV augment primary fold 0.72.
For CN(CC(O)CN)CC(O)CN1CCCCC1 (centres undefined) the results were RGS16-Gao 104.2, PKD1 inh 1.0, GALR2 ag -1.9, Insulin prom inh 20.0, HSV augment inactive, Insulin prom inh cell count 164.9 and HSV augment primary fold 0.9.
Screening Cc1cc(C)cc(C(=O)/C=C2\NC(=O)CS2)c1 returned RGS16-Gao 100.4, PKD1 inh 6.3, GALR2 ag -1.5, HSV augment inactive and HSV augment primary fold 1.14.

3 compounds drawn at random from the list so far, as already listed:
COc1ccc(-c2onc3ccc(Cl)cc23)cc1OC was read as PKD1 inh -0.5, GALR2 ag -1.3, Insulin prom inh -4.8 and Insulin prom inh cell count 89.9.
O=C(Nc1cnccn1)Nc1ccccc1Cl was read as RGS16-Gao 96.4, PKD1 inh -2.7, Insulin prom inh 40.0, HSV augment inactive, Insulin prom inh cell count 124.4 and HSV augment primary fold 0.72.
For COc1cc(C(=O)NNC(=O)c2ccc(S(=O)(=O)N3CCCCC3)cc2)cc(OC)c1OC the results were RGS16-Gao 105.6, PKD1 inh 1.8, GALR2 ag -3.4, Insulin prom inh -28.9, HSV augment inactive, Insulin prom inh cell count 42.1 and HSV augment primary fold 1.03.

(more compounds)
For CC(NC(=O)C(C(=O)c1cccc([N+](=O)[O-])c1)n1cc(Cl)ccc1=O)c1ccccc1 (centres undefined) the results were RGS16-Gao 104.6, PKD1 inh -5.0, GALR2 ag -0.3, Insulin prom inh -118.9, HSV augment inactive, Insulin prom inh cell count 160.1 and HSV augment primary fold 1.05.
For Cc1cccc(NC(=S)NCCc2ccccn2)c1 the results were RGS16-Gao 96.6, HSV augment inactive and HSV augment primary fold 0.99.
Screening CCCc1cc(=O)oc2cc3oc(C)c(C)c3cc12 returned RGS16-Gao 103.8, PKD1 inh -11.7 and GALR2 ag -3.9.
`COc1ccccc1C1NC(c2ccccc2OC)C(C)C(=O)C1C` (centres undefined) gave RGS16-Gao 106.3, PKD1 inh -2.6, GALR2 ag -0.4, Insulin prom inh -30.0, HSV augment inactive, Insulin prom inh cell count 56.0 and HSV augment primary fold 1.05.
Screening COc1ccc(CC(=O)Nc2nc(-c3cccnc3)cs2)cc1 returned RGS16-Gao 101.9, PKD1 inh 1.1, GALR2 ag -0.8, HSV augment inactive and HSV augment primary fold 0.95.
`COC(=O)c1ccc(C)c(NC(=O)CCSc2ccc(Cl)cc2)c1` gave RGS16-Gao 102.6, PKD1 inh -1.6, GALR2 ag -1.8, Insulin prom inh -41.7 and Insulin prom inh cell count 101.0.
`Cc1ccc(CN2CCN(Cc3cn(C(C)C)c4ccccc34)CC2CCO)o1` (centres undefined) gave RGS16-Gao 122.7, PKD1 inh 5.4, HSV augment inactive and HSV augment primary fold 1.05.
Screening CC1(C)Cc2c(c(-c3ccco3)nc3n[nH]c(N)c23)CO1 returned RGS16-Gao 94.5, PKD1 inh 0.3, GALR2 ag 0.4, HSV augment inactive and HSV augment primary fold 1.05.
COc1cccc(NC(=S)NNC(=O)C(C)n2nc(C)c([N+](=O)[O-])c2C)c1 (centres undefined) was read as RGS16-Gao 96.4, PKD1 inh -15.6, GALR2 ag -2.0, HSV augment inactive and HSV augment primary fold 1.29.
Cn1c(SCc2nc(-c3ccc(Cl)cc3)no2)nnc1-c1cccs1 was read as RGS16-Gao 100.7, PKD1 inh -8.0, GALR2 ag -1.3, Insulin prom inh -13.0, HSV augment inactive, Insulin prom inh cell count 77.7 and HSV augment primary fold 0.89.
For COc1ccc(C(=O)Nc2ccccc2C(=O)NCc2ccco2)cc1OC the results were RGS16-Gao 81.6, PKD1 inh -3.1, GALR2 ag -0.3, HSV augment inactive and HSV augment primary fold 0.85.
Screening CCS(=O)(=O)N1CCCC(C(=O)NCCc2ccc(C)cc2)C1 (centres undefined) returned RGS16-Gao 99.9, PKD1 inh -6.7, GALR2 ag 0.0, Insulin prom inh 0.0, HSV augment inactive, Insulin prom inh cell count 148.6 and HSV augment primary fold 1.05.
`Cc1cccc(-n2c(SCC(=O)N3CC(=O)Nc4ccccc43)nc3ccccc3c2=O)c1` gave RGS16-Gao 105.6, PKD1 inh -0.4, Insulin prom inh -15.0, HSV augment inactive, Insulin prom inh cell count 98.8 and HSV augment primary fold 0.86.
Screening COCC(C)N1C(=O)Cc2c1nc(N)c1c(N)nc(N3CCN(c4ccccc4F)CC3)c(C#N)c21 (centres undefined) returned RGS16-Gao 101.7, PKD1 inh -1.1, HSV augment inactive and HSV augment primary fold 0.98.
For CC1CN(C(=O)Cn2c(C(F)(F)F)nc3ccccc32)CC(C)O1 (centres undefined) the results were RGS16-Gao 99.5, PKD1 inh 2.5, GALR2 ag -1.0, Insulin prom inh -11.1, HSV augment inactive, Insulin prom inh cell count 69.5 and HSV augment primary fold 0.89.
For O=C(/C=C/c1cnc2ccccc2n1)NC12CC3CC(CC(C3)C1)C2 the results were RGS16-Gao 110.7, PKD1 inh -5.4, GALR2 ag -1.8, HSV augment inactive and HSV augment primary fold 0.96.
Screening COc1ccc(NC(=S)N2CCN(c3ccc([N+](=O)[O-])cc3)CC2)cc1OC returned RGS16-Gao 95.5, PKD1 inh -5.4, HSV augment inactive and HSV augment primary fold 0.97.
For COCCCN(C(=S)Nc1cccc(Cl)c1)C(C)c1ccncc1 (centres undefined) the results were RGS16-Gao 102.8, PKD1 inh -5.5, GALR2 ag -0.3, Insulin prom inh -5.4, HSV augment inactive, Insulin prom inh cell count 148.0 and HSV augment primary fold 0.93.
COc1ccc(NC(=O)CCc2nc3ccccc3[nH]2)cc1 was read as RGS16-Gao 96.5, PKD1 inh -5.9, Insulin prom inh 0.0, HSV augment inactive, Insulin prom inh cell count 75.5 and HSV augment primary fold 1.05.
For c1ccc2c(c1)CC1(CCCC1)N=C2N1CCOCC1 the results were RGS16-Gao 98.4, HSV augment inactive and HSV augment primary fold 0.97.
`COc1ccc(N2CC(C(=O)Nc3ccc(S(=O)(=O)Nc4nccs4)cc3)CC2=O)cc1` (centres undefined) gave RGS16-Gao 97.2, PKD1 inh -2.9, Insulin prom inh -11.1, HSV augment inactive, Insulin prom inh cell count 120.9 and HSV augment primary fold 0.98.
